rRNA inh HTS: inhibitors of bacterial rRNA selective over humanized ribosomes | E. coli WT GFP vs humanized-ribosome RFP mutants, fluorescence, 24 h; stronger effect = lower value; DMSO median 0, no signal -100 | GFP signal change (wild-type ribosome), % (no concentration beside the values) | hit rate 1.6% among 350,000 | AID 720706;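 active = significant combined selectivity score with lowered wild-type GFP, culture density cut under 30%, mutant RFP and density less affected; inactive = any of these conditions unmet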; note: one replicate is shown; some compounds called inactive have numbers as strong as hits
rRNA inh HTS OD600: also measured in rRNA inh HTS; calls as there; OD600 change, %; measured here: OD600 growth;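 optical density of the mix in the first replicate; 0 = DMSO median and -100 = no signal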
rRNA inh HTS RFP: also measured in rRNA inh HTS; calls as there; RFP signal change, %; measured here: RFP humanized mutant strains;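 first replicate; 0 = DMSO median and -100 = no signal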
An asterisk follows results filed as active; & = joins results of further samples. Only part of the results is shown; rates above refer to the full screens.

SMILES	rRNA inh HTS	rRNA inh HTS OD600	rRNA inh HTS RFP
CO[C@H]1CN(C)C(=O)c2ccc(NC(C)=O)cc2OC[C@H](C)N(C(=O)c2cnccn2)C[C@@H]1C	1	0	-1.5
COc1ccc(CN(C)C[C@@H]2OCCCC[C@H](C)Oc3ccc(NC(=O)CCCN(C)C)cc3C(=O)N([C@@H](C)CO)C[C@H]2C)cc1	4	17	-1.4
C[C@H](CO)N1C[C@H](C)[C@H](CN(C)C(=O)Cc2ccccc2)Oc2ncc(C#CCN(C)C)cc2C1=O	2	1	-3.2
CNC[C@@H]1OCCCC[C@H](C)Oc2ccc(NC(=O)c3ccncc3)cc2C(=O)N([C@H](C)CO)C[C@@H]1C	3	9	-5.0
CCC(=O)N1[C@@H]2c3ccc(-c4ccc(F)cc4)c(=O)n3C[C@@H]2[C@@H](CO)[C@@H]1C(=O)NC1CCC1	-1	-1	-1.5
COc1ccc(NC(=O)N(C)C[C@H]2Oc3ccc(NC(=O)Cc4cn(C)c5ccccc45)cc3C(=O)N([C@H](C)CO)C[C@H]2C)cc1	1	-5	1.0
COCCNC(=O)C[C@H]1CC[C@H](NS(=O)(=O)c2ccc(C)cc2)[C@@H](CO)O1	2	2	1.5
C[C@H]1CN([C@@H](C)CO)C(=O)c2cc(NC(=O)CCCCCC(=O)Nc3ccccc3N)ccc2O[C@@H]1CN(C)Cc1ccc2c(c1)OCO2	2	18	0.8
CC(C)(C)OC(=O)NCc1ccc(CNC(=O)c2[nH]cnc2C(=O)Nc2ccccc2F)cc1	12	8	-1.5
CCCC#Cc1ccc2c(c1)O[C@H](CN(C)CC1CCOCC1)[C@H](C)CN([C@H](C)CO)S2(=O)=O	4	5	-5.2
COc1cccc(C(=O)Nc2ccc3c(c2)OC[C@@H](C)NC[C@H](C)[C@H](OC)CN(C)C3=O)c1	2	2	0.5
C[C@@H]1CN([C@H](C)CO)C(=O)Cc2cc(N(C)C)ccc2O[C@H]1CN(C)CC1CC1	0	1	-0.6
O=C(C[C@H]1CC[C@H](NC(=O)C2CCOCC2)[C@H](CO)O1)Nc1ccccc1	1	3	-2.2
CC(C)NC(=O)Nc1ccc2c(c1)C(=O)N([C@H](C)CO)C[C@H](C)[C@H](CN(C)Cc1ccc(C(F)(F)F)cc1)OCCCC[C@H](C)O2	0	-6	6.6
CC(C)NC(=O)Nc1ccc2c(c1)CC(=O)N([C@H](C)CO)C[C@@H](C)[C@@H](CN(C)C(=O)Nc1ccc(C(F)(F)F)cc1)O2	-4	-4	-2.2
C[C@H](CO)N1C[C@H](C)[C@@H](CN(C)Cc2ccncc2)Oc2ccc(NS(C)(=O)=O)cc2CC1=O	3	-1	-1.6
COc1cccc(-c2ccc3c(c2)[C@@H]2C[C@H]4[C@@H](CN2CC3)[C@H](C)ON4C)c1	-7	4	4.3
C[C@@H]1CCCCO[C@@H](CN(C)Cc2ccncc2)[C@@H](C)CN([C@H](C)CO)C(=O)c2cc(NC(=O)Nc3ccc4c(c3)OCO4)ccc2O1	0	-2	-1.3
COc1ccc2c3c([nH]c2c1)[C@@H](CO)N(C)CC31CN(C(=O)c2ccccn2)C1	1	-2	-2.3
CC1=CC2C3C(=O)N(c4ccccc4)C(=O)C3C1C(=O)C2(O)C(C)C (stereo unspecified)	9	8	0.9
C[C@@H](NC(=O)C[C@@H]1CC[C@@H]2[C@@H](COc3ccc(NC(=O)C4CCOCC4)cc3C(=O)N2C)O1)c1ccccc1	5	15	-1.6
C[C@@H]1CN([C@@H](C)CO)C(=O)c2cc(N(C)C)ccc2O[C@@H](C)CCCCO[C@@H]1CN(C)C(=O)NC1CCCCC1	0	-7	-1.3
C[C@@H]1CCCCO[C@@H](CN(C)S(=O)(=O)c2ccc(F)cc2)[C@H](C)CN([C@@H](C)CO)C(=O)c2cc(NS(C)(=O)=O)ccc2O1	1	-8	2.3
CC(=O)Nc1ccc(C(C)=NNC(=O)C2CCCC2)cc1	22	26	4.6
O=C(C[C@@H]1CC[C@@H](NC(=O)c2cccc(F)c2)[C@@H](CO)O1)NCCN1CCCC1	-1	-5	-3.2
Cc1ccnc(Nc2cccnc2)n1	5	1	-0.9
COc1ccc2c3c([nH]c2c1)[C@H](CO)N(Cc1ccc(F)cc1)CC31CCN(Cc2ccccn2)CC1	0	7	3.3
CCC(=O)N1[C@H](CO)[C@@H]2c3ccccc3N(S(=O)(=O)c3ccccc3C)C[C@@H]21	-5	-13	-1.6
O=C(NC1CCCCC1)N1CC(=O)N2[C@H](C1)[C@H](c1ccc(-c3ccncc3)cc1)[C@@H]2CO	3	13	-2.0
COc1ccc(NC(=O)N(C)C[C@@H]2Oc3ccc(NC(=O)Nc4ccc(C(F)(F)F)cc4)cc3C(=O)N([C@H](C)CO)C[C@H]2C)cc1	-3	-3	-1.2
C[C@H](CO)N1C[C@H](C)[C@H](CN(C)Cc2ccc(Oc3ccccc3)cc2)Oc2c(NC(=O)NC3CCCCC3)cccc2C1=O	-2	-17	1.6
COC(=O)[C@@H]1[C@@H](CO)[C@@H]2Cn3c(cccc3=O)[C@@H]2N1C(=O)C1CCCC1	3	6	-1.4
Cn1ccc2c(-c3ccc(C(F)(F)F)cc3)cc3c(c21)C1CCC3C1 (stereo unspecified)	-4	-11	10
C[C@H](CO)N1C[C@H](C)[C@H](CN(C)C(=O)Nc2ccccc2)Oc2ccc(NC(=O)Nc3cccc4ccccc34)cc2C1=O	-2	-1	0.7
Cc1cccc(NC(=O)Nc2nnc([C@H]3C[C@H](O)[C@@H](CO)O3)s2)c1	-2	12	-2.2
O=C(Nc1ccccc1F)N[C@H]1CC[C@@H](CC(=O)N2CCCCC2)O[C@H]1CO	-3	3	-2.4

Quoted at random: 2 records from the list
SMILES	rRNA inh HTS	rRNA inh HTS OD600	rRNA inh HTS RFP
O=C(NC1CCCCC1)N1CC(=O)N2[C@H](C1)[C@H](c1ccc(-c3ccncc3)cc1)[C@@H]2CO	3	13	-2.0
O=C(C[C@@H]1CC[C@@H](NC(=O)c2cccc(F)c2)[C@@H](CO)O1)NCCN1CCCC1	-1	-5	-3.2

Further compounds.
SMILES	rRNA inh HTS	rRNA inh HTS OD600	rRNA inh HTS RFP
COC(=O)c1ccccc1NC(=O)CCCOc1cc(=O)n(C)c2ccccc12	-14	-9	-2.8
CN(Cc1ccccc1)C(=O)CCN1C(=O)c2cccc([N+](=O)[O-])c2C1=O	9	7	0.8
CN1[C@H](C(=O)NCCc2ccccc2)[C@@H](CO)[C@@H]2Cn3c(ccc(-c4ccncc4)c3=O)[C@@H]21	1	-2	0.2
COc1ccc(-c2ccc([C@@H]3[C@@H](C#N)N(C(=O)C4CCC4)[C@H]3CO)cc2)cc1	1	2	-1.3
C[C@@H]1CN([C@@H](C)CO)C(=O)c2cc(-c3ccc(F)cc3)cnc2O[C@@H]1CN(C)C(=O)c1ccccn1	1	-2	-1.9
CCCC#Cc1ccc2c(c1)O[C@@H](CN(C)C(=O)Nc1ccc(OC)cc1)[C@H](C)CN([C@H](C)CO)S2(=O)=O	-51	-78	-15
C[C@@H]1CN([C@H](C)CO)C(=O)CCCn2cc(nn2)CO[C@H]1CN(C)Cc1ccc(Oc2ccccc2)cc1	-2	-9	1.5
C[C@H](CO)N1C[C@H](C)[C@@H](CN(C)C(=O)c2ccccc2F)Oc2ncc(C#CC(C)(C)O)cc2C1=O	1	10	-0.4
O=C(C[C@@H]1CC[C@@H]2[C@H](COC[C@H](O)CN2C(=O)Nc2cc(Cl)cc(Cl)c2)O1)N1CCOCC1	-51	-71	-8.4
COc1ccc(-c2cnc3c(NC=O)cc(-c4cccc(NS(C)(=O)=O)c4)cn23)cc1OC	0	-5	4.4
Cc1cc(CNC[C@H]2O[C@@H](n3ccc(N)nc3=O)[C@H](O)[C@@H]2O)no1	9	13	-1.1
CO[C@@H]1CN(C)C(=O)c2ccc(NC(=O)C3CC3)cc2OC[C@@H](C)N(Cc2ccncc2)C[C@@H]1C	-6	-4	-1.5
CC(=O)N1Cc2cc(C(=O)NCC(F)(F)F)nc(-c3cccc(-c4cccnc4)c3)c2[C@H]1CCO	-2&4	3&8	0.0&-4.8
CO[C@@H](C(=O)N(C)C[C@@H]1OCc2ccccc2-c2ccccc2C(=O)N([C@H](C)CO)C[C@H]1C)c1ccccc1	1	6	2.1
COCC(=O)Nc1ccc2c(c1)OC[C@@H](C)N(C(=O)C1CCCC1)C[C@H](C)[C@H](OC)CN(C)C2=O	2	0	-1.8
C[C@@H]1CCCCO[C@H](CN(C)C(=O)Cc2ccccc2)[C@H](C)CN([C@H](C)CO)C(=O)c2cc(N(C)C)ccc2O1	-5	-3	0.0
N#C[C@H]1[C@@H](c2ccc(C#CC3(O)CCCC3)cc2)[C@@H](CO)N1C(=O)C1CCC1	4	-1	-0.6
Cc1ccc(S(=O)(=O)N(C)C[C@H]2Oc3c(NC(=O)Nc4c(C)noc4C)cccc3C(=O)N([C@@H](C)CO)C[C@H]2C)cc1	1	2	-0.4
CCC(=O)N[C@@H]1CC[C@H](CC(=O)OC)O[C@@H]1CO	-4	7	-2.4
C[C@@H]1CN([C@H](C)CO)C(=O)c2cc(NS(=O)(=O)c3cn(C)cn3)ccc2O[C@@H]1CN(C)Cc1ccc2c(c1)OCO2	4	10	0.3
COCC(=O)Nc1ccc2c(c1)C(=O)N(C)C[C@H](OC)[C@@H](C)CN(C(=O)CC1CC1)[C@@H](C)CO2	-1	2	-2.5
CC(=O)N1CC[C@@H]2[C@H]1c1cc(-c3ccc(F)cc3)ccc1N[C@@H]2CO	5	-7	-0.3
O=C([C@@H]1[C@@H](CO)[C@@H]2Cn3c(ccc(C4=CCCCC4)c3=O)[C@@H]2N1Cc1nccs1)N1CCOCC1	-1	1	0.1
C[C@@H]1CN([C@@H](C)CO)C(=O)c2cc(-c3cccnc3)cnc2O[C@@H]1CN(C)C(=O)C1CCCCC1	5	9	1.2

Single records (already shown).
CO[C@@H](C(=O)N(C)C[C@@H]1OCc2ccccc2-c2ccccc2C(=O)N([C@H](C)CO)C[C@H]1C)c1ccccc1 is listed with rRNA inh HTS: 1; rRNA inh HTS OD600: 6; rRNA inh HTS RFP: 2.1
COCC(=O)Nc1ccc2c(c1)OC[C@@H](C)N(C(=O)C1CCCC1)C[C@H](C)[C@H](OC)CN(C)C2=O is listed with rRNA inh HTS: 2; rRNA inh HTS OD600: 0; rRNA inh HTS RFP: -1.8
C[C@@H]1CN([C@H](C)CO)C(=O)c2cc(NS(=O)(=O)c3cn(C)cn3)ccc2O[C@@H]1CN(C)Cc1ccc2c(c1)OCO2 is listed with rRNA inh HTS: 4; rRNA inh HTS OD600: 10; rRNA inh HTS RFP: 0.3

The list continues.
SMILES	rRNA inh HTS	rRNA inh HTS OD600	rRNA inh HTS RFP
Cc1ccc(S(=O)(=O)NCC2CCN(C(=O)C(=O)c3cccs3)CC2)cc1	-3	-5	2.9
CCC(=O)N[C@@H]1C=C[C@H](CC(=O)NCCN2CCCCC2)O[C@H]1CO	3	0	-1.1
C[C@@H]1CN([C@H](C)CO)C(=O)c2cc(NC(=O)C3CCCCC3)ccc2O[C@@H](C)CCCCO[C@@H]1CN(C)S(C)(=O)=O	-1	1	-2.0
O=C(C[C@@H]1CC[C@H](NC(=O)c2cccc(F)c2)[C@H](CO)O1)Nc1nccs1	-2	1	-0.7
O=S(=O)(N[C@H]1CC[C@@H](CCn2cc(-c3cccnc3)nn2)O[C@H]1CO)c1ccc(F)cc1	0	4	-1.9
CC(C)NC(=O)Nc1ccc2c(c1)C(=O)N(C)C[C@@H](C)[C@H](CN(C)S(C)(=O)=O)O2	-3	2	-1.1
CO[C@H]1CN(C)C(=O)c2ccc(NC(=O)C3CC3)cc2OC[C@H](C)N(CCc2ccccc2)C[C@H]1C	0	-7	0.0
C[C@@H]1CN([C@H](C)CO)S(=O)(=O)c2ccc(-c3ccncc3)cc2O[C@H]1CN(C)C(=O)Nc1ccc(F)cc1	-3	-11	0.1
Cc1ccc(S(=O)(=O)Nc2ccc3c(c2)CC(=O)N([C@H](C)CO)C[C@@H](C)[C@H](CN(C)S(=O)(=O)c2ccc(F)cc2)O3)cc1	-2	-3	0.6
CO[C@@H]1CN(C)C(=O)c2cc(NC(=O)c3ccccc3F)ccc2OC[C@H](C)N(CC2CCOCC2)C[C@@H]1C	1	5	-0.7
CO[C@H]1CN(C)C(=O)c2ccc(NC(=O)C3CCOCC3)cc2OC[C@H](C)N(C(C)=O)C[C@@H]1C	-1	-2	-3.5
C[C@@H]1CN([C@@H](C)CO)C(=O)c2cc(NC(=O)Nc3ccc4c(c3)OCO4)ccc2O[C@@H]1CN(C)Cc1ccc2c(c1)OCO2	-3	-11	6.9
CCCNC(=O)C[C@H]1CC[C@@H]2[C@H](COc3ccc(NC(=O)NCCC)cc3C(=O)N2C)O1	2	5	-1.1
COCC(=O)N1CC(=O)N2[C@H](CO)[C@@H](c3ccc(C#CC4CC4)cc3)[C@@H]2C1	0	-2	-3.6
C[C@@H]1CN([C@H](C)CO)C(=O)c2cc(NS(=O)(=O)c3ccc(F)cc3)ccc2O[C@@H](C)CCCCO[C@@H]1CN(C)S(=O)(=O)c1cn(C)cn1	-2	-7	-5.1

3 of the entries above in order of their number in rRNA inh HTS OD600, low to high.
SMILES | rRNA inh HTS OD600
C[C@@H]1CN([C@@H](C)CO)C(=O)c2cc(NC(=O)Nc3ccc4c(c3)OCO4)ccc2O[C@@H]1CN(C)Cc1ccc2c(c1)OCO2 | -11
CO[C@H]1CN(C)C(=O)c2ccc(NC(=O)C3CC3)cc2OC[C@H](C)N(CCc2ccccc2)C[C@H]1C | -7
O=S(=O)(N[C@H]1CC[C@@H](CCn2cc(-c3cccnc3)nn2)O[C@H]1CO)c1ccc(F)cc1 | 4

From PubChem BioAssay
